High-throughput results from PubChem BioAssay.
HPGD inh: HPGD (human) dehydrogenase inhibition; P15428; purified HPGD, NADH fluorescence kinetic, PGE2 substrate; Potency, µM, for the others: top-dose activity change, negative = inhibition, most hits filed as inhibitors; 150,000 tested, 4.3% active; active = well fitted inhibition curve with a large enough effect (not every such curve was filed as active); inconclusive = small, poorly fitted or top-dose-only effect, or another doubt; inactive = no such curve, though single readings can be large or run the other way;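 also: top concentration of the series not given in the record; plate controls included wells without enzyme; inactives centre near -10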
Target sequence (P15428 whole entry, looked up): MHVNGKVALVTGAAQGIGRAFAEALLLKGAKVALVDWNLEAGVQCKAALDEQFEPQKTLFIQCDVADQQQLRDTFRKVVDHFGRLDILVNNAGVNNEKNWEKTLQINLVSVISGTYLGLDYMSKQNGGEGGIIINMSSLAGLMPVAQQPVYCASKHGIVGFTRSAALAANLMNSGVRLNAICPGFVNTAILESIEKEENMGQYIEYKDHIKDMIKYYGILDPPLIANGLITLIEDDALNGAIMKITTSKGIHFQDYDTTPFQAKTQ
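NADH formation kinetics: reaction with 30 uM PGE2 and 1 mM NAD+ (final), 20 nM enzyme, Tris-HCl pH 8 with Tween 20, after 15 min compound preincubation at room temperature. Fluorescence change, last versus first of five reads.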
The depositor's hits bear a star; ? = inconclusive. % is scaled to controls: 0 for no effect and ±100 for the full control effect; potency is read from the fitted curve at half-maximal effect. These rows are one share of the data; count on the stated rates, not on these rows.

The opening 5 records, to show the layout:
SMILES	HPGD inh
CC(/C=C/c1ccccc1)=N/NC(=O)CCC(=O)Nc1ccccc1C	-17%
CC(C)(C)NC(=O)CSc1nncn1NCc1cccc2ccccc12	0%
CCOC(=O)N1CCC(N2C(=O)c3ccc(C(=O)NCc4ccc(F)cc4)cc3C2=O)CC1	-9%
Cc1ccc(-n2c(N)c(C(=O)N3CCCCC3)sc2=S)cc1	10µM*
C/C(=N\NC(=O)c1ccc(NS(=O)(=O)c2cccs2)cc1)c1ccc2ccccc2c1	-22%

Main list, repeating the preview:
SMILES	HPGD inh
CC(/C=C/c1ccccc1)=N/NC(=O)CCC(=O)Nc1ccccc1C	-17%
CC(C)(C)NC(=O)CSc1nncn1NCc1cccc2ccccc12	0%
CCOC(=O)N1CCC(N2C(=O)c3ccc(C(=O)NCc4ccc(F)cc4)cc3C2=O)CC1	-9%
Cc1ccc(-n2c(N)c(C(=O)N3CCCCC3)sc2=S)cc1	10µM*
C/C(=N\NC(=O)c1ccc(NS(=O)(=O)c2cccs2)cc1)c1ccc2ccccc2c1	-22%
O=C(NN1C(=O)C2C3C=CC(O3)C2C1=O)c1ccncc1 (centres undefined)	3%
COc1cc2c(C(=O)NCc3ccccn3)cn(C)c(=O)c2cc1OC	-11%
Cc1cc(N2CCCCCC2)nc2ccccc12	?
COc1ccc(CNC(=O)c2cnccn2)cc1	-25%
CCOC(=O)c1ccc(NC(=O)CSc2nnc(C3CC3)n2CC)cc1	-2%
O=C(Cn1ncc2c1-c1ccccc1OC2)Nc1cccc(Cl)c1	-11%
COc1ccc(C(C(=O)NCc2ccccc2)N(Cc2ccc3c(c2)OCO3)C(=O)c2cnccn2)cc1 (centres undefined)	-6%
CCN(Cc1cc2cc(C)ccc2[nH]c1=O)C(=O)c1cccc(OC)c1	-11%
COCC(=O)N1CCC2(CC1)CN(Cc1ccc(C#N)cc1)C2	-8%
O=C(CSc1nnc(-c2ccc(Cl)cc2)n1-c1ccc(Cl)cc1)N/N=C/c1ccco1	-18%
CCOC(=O)c1nn(-c2ccc(OCC)cc2)c2nc(CC(C)C)c(C#N)c(=O)n12	?
C/C(=N\N=C\c1ccc(N(C)C)cc1)c1cccc([N+](=O)[O-])c1	-10%
COc1ccc(C(=O)COC(=O)CCN2C(=O)C3C4CC(C(Br)C4Br)C3C2=O)cc1 (centres undefined)	-10%
Cn1c(Cn2c(=O)sc3ccccc32)nnc1SCc1cccnc1	-5%
C[C@H](NC(=O)OC(C)(C)C)c1nnc(SCC(=O)c2ccc(Cl)cc2)o1	-7%
Cc1ccc2c(N)c(C(=O)N(c3ccccc3)c3ccccc3)sc2n1	-15%
Cc1nc2ccc(S(=O)(=O)NCC(=O)N3CCCC(C)C3)cc2s1 (centres undefined)	-6%
Cc1sc(NC(=O)CSc2nnc(-c3ccc(F)cc3)o2)c(C#N)c1C	-9%
CCN(CC)c1ccc(NC(=O)c2ccc(Br)o2)cc1	-14%
O=C(COC(=O)CCCN1C(=O)c2ccccc2C1=O)Nc1cc(Cl)cc(Cl)c1	-15%
(next part)
SMILES	HPGD inh
COc1ccc(OC)c(NC(=O)CCn2cccc2)c1	-7%
O=C(NCc1ccccc1)N(Cc1cc2cc3c(cc2[nH]c1=O)OCCO3)CC1CCCO1 (centres undefined)	?
O=C(Cn1cnnn1)OCC(=O)c1ccc(Cl)s1	-7%
CCOc1ccc(/C(CC)=N/NC(=O)C2(C)CC2(Br)Br)cc1 (centres undefined)	-4%
O=C(CSc1nnnn1C1CCCCC1)NCc1ccccc1	-7%
CCc1noc(C)c1C(=O)Nc1sc(C(=O)N(C)C)c(C)c1C(=O)OC	-9%
OCC1N=C(c2ccccn2)OC1c1ccccc1 (centres undefined)	-2%
CCOc1ccc(NC(=O)Nc2ccc3c(c2)N(C)C(=O)CS3)cc1	-21%
Brc1cccc(-c2nnc(SCc3ccon3)n2-c2ccccc2)c1	0%
COc1ccc(OC)c(CN(CCN2CCOCC2)C(=O)Nc2cccc(Cl)c2)c1	-6%
C/C=C/c1ccc(OCCN2C(=O)NC(C)(C)C2=O)c(OC)c1	-10%
CC(C)CNc1nc(Oc2ccc(=O)[nH]n2)nc(N(C)C)n1	-4%
CCN(CC)S(=O)(=O)c1cc(NS(=O)(=O)c2cccc(Cl)c2Cl)ccc1C	6%
Cc1ccc(C2C3=C(CC(C)(C)CC3=O)NC3=C2C(=O)c2ccccc23)cc1 (centres undefined)	-2%
Cc1ccc(NC(=O)CN2C(=O)S/C(=C\c3ccc(-c4cccc(C(=O)O)c4C)o3)C2=O)cc1	10µM*
CC/C=C\C/C=C\C/C=C\CCCCCCCCCC(=O)O	-6%
COc1ccc(CNC(=S)Nc2cccc(C)c2C)cc1	-5%
CC(=O)/C(=N\Nc1ccc(Cl)cc1Cl)Sc1nnc(-c2ccccc2)n1-c1ccccc1	?
COc1ccc(CNC(=O)C(C#N)c2nc3ccccc3nc2N2CCCC2)cc1 (centres undefined)	-18%
C1CNCCOCCNCCN1	-10%
CCC1CCCCN1C(=O)CSc1nc2c(cnn2-c2ccc(C)cc2)c(=O)[nH]1 (centres undefined)	-22%
COc1ccc(-n2nc(C(=O)NCC(=O)NCC3CCCO3)c3ccccc3c2=O)cc1 (centres undefined)	-27%
O=C(COC(=O)c1cc(-c2cccs2)nn1-c1ccccc1)Nc1ccc(F)c([N+](=O)[O-])c1	-15%
COc1ccc(-c2nc(CSCC(=O)NCc3ccc4c(c3)OCO4)c(C)o2)cc1OC	?
Cc1cc(C2C(C#N)=C(N)OC3=C2C(=O)CC(C)(C)C3)c(C)s1 (centres undefined)	-16%
(listing goes on)
SMILES	HPGD inh
COC(=O)c1ccc(NS(=O)(=O)c2ccc3c(c2)oc(=O)n3C)cc1	-12%
Cc1cc(C)cc(NC(=O)CCNS(=O)(=O)c2ccc3c(c2)oc(=O)n3C)c1	-6%
CCC(CCC(C)C1CCC2C3CC=C4CC(OC(C)=O)CC[C@@]4(C)C3CC[C@@]12C)C(C)C (some centres undefined)	-11%
CCOc1ccc(N(CC(=O)Nc2nccs2)S(=O)(=O)c2c(C)noc2C)cc1	-9%
O=C(Nc1ccc(F)cc1F)N1CCN(c2ncccn2)CC1	-15%
CCN(CCCNC(=O)COc1cc(=O)n(CC)c2ccccc12)Cc1ccccc1	-3%
C=CCSc1nnc(C)n1-c1ccc(Cl)cc1	-5%
CCOc1ccccc1NC(=O)C1CCC(CNc2c(N3CCOCC3)c(=O)c2=O)CC1 (centres undefined)	-25%
Cc1noc(NC(=O)c2ccc(F)cc2)c1C#N	-7%
O=C(CCN1C(=O)c2ccccc2C1=O)OCN1C(=O)c2ccccc2C1=O	-16%
S=C(c1cn(Cc2ccc(Br)cc2)c2ccccc12)N1CCOCC1	-3%
Cc1ccc(C)c(NC(=O)CS(=O)(=O)c2c[nH]c3ccccc23)c1	-8%
O=C(NC1CCCCC1)N1CCc2[nH]c3ccccc3c2C1	-15%
CCCC[P+](CCCC)(CCCC)Cc1ccc(NC(=O)[C@@H](Cc2ccc3ccccc3c2)NC(=NC2CCCCC2)NC2CCCCC2)cc1	-9%
O=C(Oc1ccc(OC(=O)C2CCC2)cc1)C1CCC1	-3%
COc1ccc(/C=N/N=C2/NC(=O)C(CC(=O)O)S2)cc1OCc1ccccc1Cl (centres undefined)	?
Nc1ccccc1Nc1cc(-c2ccccc2)nn1-c1ccccc1	-11%
Cc1cc(C)c(C)c(OCCOCCN2CCN(C)CC2)c1	-8%
COc1cccc(CN2C(=O)CCC2(C)C(=O)NC2CCCCC2)c1 (centres undefined)	-4%
Nc1c(C(=O)Nc2ccc(S(=O)(=O)N3CCCC3)cc2)sc2nc3ccc(OC(F)(F)F)cc3cc12	-21%
CON(C)c1nc(OCCNC(=O)OCc2ccc(Cl)cc2Cl)nc(N(C)C)n1	-12%
O=C(O)C1CCCCC1C(=O)NCc1cn2ccccc2n1 (centres undefined)	?
CSCC[C@H](NC(=O)COc1ccc(Cl)cc1)c1nc2ccccc2[nH]1	-10%
C=CCSC1=N/C(=C\c2sccc2C)C(=O)S1	-12%
Cc1cc2nc(C)n3c4ccccc4nc3n2n1	-4%
Following part:
SMILES	HPGD inh
OC(Cn1ccnc1)c1ccc(Cl)cc1Cl (centres undefined)	-11%
CC(C)C(NC(=O)COc1ccc2ccccc2c1)C(=O)N/N=C/C=C/c1ccccc1 (centres undefined)	3%
Cc1cc(Nc2ccc(N3CCC(C)CC3)cc2)n2ncnc2n1	-11%
NS(=O)(=O)c1cc2c(cc1Cl)=NC(CCC(=O)O)=NS=2(=O)O	-5%
COC(=O)c1cc(NC(=O)c2c(F)c(F)c(F)c(F)c2F)cc(C(=O)OC)c1	-23%
Cn1cccc1C(=O)N1CCC2(CC1)CN(C(=O)Nc1cccc(C#N)c1)C2	-16%
CC(=O)C1=C(C)NC(SCC(N)=O)=C(C#N)C1c1cccs1 (centres undefined)	-10%
COc1ccc(C(C#N)N2N=C(C)CC2(C)C)cc1OC (centres undefined)	-14%
Cc1ccc(-n2c(Cc3cccn3C)nnc2SCC(=O)N2CCc3ccccc32)cc1	-8%
O=C(O)c1ccc(CO)o1	-4%
COc1cc(NC(=O)C2COc3ccccc3O2)c(OC)cc1Cl (centres undefined)	-13%
Cc1csc(NC(=O)CCS(=O)(=O)c2ccc(Br)cc2)n1	-1%
COc1cccc(NC(=O)CCSc2ccc3ccccc3n2)c1	-24%
COC(=O)C1=C(C)N(CCc2ccc(OC)c(OC)c2)C(=O)/C1=C\c1ccc(O)cc1	-2%
O=S(=O)(Nc1nc2c(s1)CCCC2)c1ccc(Br)cc1	-15%
C(=N\Nc1ccccc1)/c1ccc(N2CCOCC2)cc1	14µM*
CCOc1ccc(Cc2c(Cl)nc(N)nc2Cl)cc1	?
Cc1ccc(-c2nnn(CC(=O)N(Cc3cccs3)C(C(=O)NC(C)(C)C)c3ccc(C)o3)n2)o1 (centres undefined)	-12%
CC(C)(C)NC(=O)C12CC3CC(CC(Cl)(C3)C1)C2	-7%
COc1ccccc1NC(=O)CSc1nnc(-c2ccccc2)o1	-8%
CCN(CC)S(=O)(=O)c1cccc(NC(=O)c2cc(-c3cccs3)nn2-c2ccccc2)c1	-20%
COc1cccc(NC(=O)COC(=O)c2ccco2)c1	-7%
CCCC(=O)Nc1c(-c2ccccc2)c(=O)c(C)nn1-c1ccc(Cl)cc1	-5%
Cc1ccc(-n2c3c(c(=O)[nH]c2=S)C(C(F)(F)F)(C(F)(F)F)NC(=O)N3)cc1	-14%
NC(CSCSCC(N)C(=O)O)C(=O)O (centres undefined)	-1%
Following part
SMILES	HPGD inh
CC(C)(C)c1nnc(NC(=O)Cc2ccccc2[N+](=O)[O-])s1	-27%
COCCNC(=O)C(OC(=O)c1cccs1)c1ccccc1 (centres undefined)	-25%
C1CCCN(CCCCN2CCCCCC2)CC1	2%
CCn1c(SCC(=O)N2CCN(c3ccc(F)cc3)CC2)nc2ccccc2c1=O	-18%
CCN1CCC(NC(=O)c2cc(OC)c(OC)cc2OC)CC1	-10%
COC(Cc1nnc(SC)n1-c1ccc(Cl)cc1)OC	-3%
CCOC(=O)C1=C(C)NC(=O)C(C(N)=O)C12CCCC2 (centres undefined)	-8%
COC(=O)c1ccc(-c2nn(C)c(=O)c3ccccc23)cc1	?
O=C(Oc1cccnc1)c1cccc(Cl)c1	-25%
Cc1ccccc1-c1nsc(SCC(=O)Nc2ccc3c(c2)OCO3)n1	-5%
O=C(CCCCCN1C(=O)c2ccccc2C1=O)NCCc1nc2ccccc2[nH]1	-6%
S=C(NCc1ccco1)N/N=C/c1ccc(Cl)cc1	-20%
Cc1cc(C)cc(N(C(=O)c2ccc3c(c2)OCO3)C2C=CS(=O)(=O)C2)c1 (centres undefined)	-6%
COc1ccc(C(=O)c2c[nH]c(C(=O)NCc3cccs3)c2)cc1	-5%
CCOC(=O)c1[nH]c2ccccc2c1NC(=O)c1ccc2c(c1)OCO2	?
CCN(CC)c1nc(-c2ccccc2)cc(C(F)(F)F)c1C#N	?
COc1ccc(N/C=C(/C(C)=O)c2ccccc2)cc1	22µM*
Cc1ccc(-n2nnnc2SCC(=O)Nc2cccnc2Cl)cc1	-8%
O=C(/C=C/c1cccc([N+](=O)[O-])c1)NC(=S)Nc1ccc(CN2CCOCC2)cc1	-12%
Cc1ccc(CNC(=O)C(OC(=O)c2ccco2)C(C)C)cc1 (centres undefined)	4.5µM*
CC(C)NCC[C@@H](O)c1cc2ccccc2o1	-7%
Cc1c(C(=O)NCCN2CCOCC2)oc2ccc(S(=O)(=O)N3CCCCCC3)cc12	-17%
CCCCNC(=O)CN(c1cccc(F)c1)S(C)(=O)=O	0%
O=C(NCc1ccc2c(c1)OCO2)C1(S(=O)(=O)c2ccccc2)CC1	1%
CCc1ccccc1NC(=O)C1c2ccccc2Oc2ccccc21	0%
CCOC(=O)NC1(C(F)(F)F)NC(=O)N(c2cccc(C(F)(F)F)c2)C1=O (centres undefined)	-5%
Oc1cccc(-c2nc3ccccc3s2)c1	-12%
N#CCCN(C1CCCCC1)S(=O)(=O)c1cccc2nsnc12	-18%
CC(=O)OC1CCC2(O)CC1(C)CCC1C2CC1(C)C (centres undefined)	-10%
CC#CCN1c2ccccc2[C@]23C[C@@H](C(=O)OC)N(C(=O)C4CCC4)C2=NC(C(=O)OC)=C(C(=O)OC)[C@H]13	-4%

An excerpt of these results, as labelled records:
> CCn1c(SCC(=O)N2CCN(c3ccc(F)cc3)CC2)nc2ccccc2c1=O
- HPGD inh: -18%

> CCN1CCC(NC(=O)c2cc(OC)c(OC)cc2OC)CC1
- HPGD inh: -10%

> COC(Cc1nnc(SC)n1-c1ccc(Cl)cc1)OC
- HPGD inh: -3%

As a short view, 4 of the compounds above:
SMILES	HPGD inh
Oc1cccc(-c2nc3ccccc3s2)c1	-12%
N#CCCN(C1CCCCC1)S(=O)(=O)c1cccc2nsnc12	-18%
CC(=O)OC1CCC2(O)CC1(C)CCC1C2CC1(C)C (centres undefined)	-10%
CC#CCN1c2ccccc2[C@]23C[C@@H](C(=O)OC)N(C(=O)C4CCC4)C2=NC(C(=O)OC)=C(C(=O)OC)[C@H]13	-4%
